Screening data deposited in PubChem BioAssay by several laboratories.
Autofluor counter: compound fluorescence in toxin protease inhibitor counterscreen; hit rate 3.1% among 360,000; AID 624483; compound autofluorescence counterscreen, microsphere flow cytometry; stronger effect = higher value; fluorescence intensity (no concentration beside the values);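 active means at least 3 SD above the mean of all compounds, about 16000 in these data; inconclusive means too few beads counted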;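 further: 100 nL of 1 mM stock went into each well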
ugtP null kill: growth inhibition of ugtP-null S. aureus, primary screen, RN4220 ugtP deletion, OD600. 16 h; some inactives read as strong as hits. growth inhibition, % (test concentration not listed). AID 1259309, 2017. hit rate 0.54% among 330,000;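 active means z-score under -3 and OD600 up to 0.15 on both plates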;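 further: plate controls were untreated wells for no effect and antibiotic for full effect; wells of about 80 µL received 100 nL stock; the first replicate is given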
PrP UTR inh: inhibition of PrP 5' UTR reporter expression; inhibition, % (no concentration beside the values); AID 488862, 2010; hit rate 0.35% among 340,000; cell-based PrP 5' UTR mRNA reporter, plate reader;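 active means every replicate at 50% or more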;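 further: 0 = median of the neutral control wells; tested in H4 reporter cells; numbers are from one replicate; inactives centre near -14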
BJeLR lethal: MLPCN primary cell-based screen for lethality selective to Ras in HRASV12 cells; hit rate 0.17% among 300,000; inhibition, % (no concentration beside the values); BJeLR (HRASV12) viability, CellTiter-Glo ATP luminescence, 48 h; reference of the scale not given here; AID 1554, 2009;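 active means replicate mean above 50%; inconclusive means above 50% but judged a plate artefact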;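 further: 50 nL library stock added to about 25 µL; numbers are from one replicate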
RN4220 kill: growth inhibition of S. aureus RN4220, primary screen, OD600; 16 h; inhibition, % (concentration not given with the values); hit rate 0.33% among 330,000; AID 1259311, 2017;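 active means z-score of -3 or lower and OD600 up to 0.18 on both plates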;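 further: plate controls were untreated cells for no effect and reference antibiotic for full effect; stock transfer was 100 nL into about 80 µL; one replicate is shown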
Mtb hypoxia inh: PubChem AID 1159583. M. tuberculosis hypoxia-regulated fluorescent reporter, fluorescence. fluorescence inhibition, % (concentration not given with the values). hit rate 0.1% among 300,000;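 active means 35 to 45% if threefold the growth effect, above 45% if 1.5-fold the growth effect; inactive means the rest, general growth blockers included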;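 further: wells of about 50 µL received 100 nL stock; 0% = vehicle wells and 100% = reference inhibitor wells; whole bacteria with a GFP reporter of the hypoxia response; strong numbers were not always called active; many hits fall short of the cut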
Mtb hypoxia inh growth: recorded beside Mtb hypoxia inh, whose call it bears; growth inhibition, %; measured here: M. tuberculosis growth (absorbance);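 0% = vehicle and 100% = reference antibiotic; read after six days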
* hit, by the source's call; ? = inconclusive; . = not tested or not shown.

SMILES	Autofluor counter	ugtP null kill	PrP UTR inh	BJeLR lethal	RN4220 kill	Mtb hypoxia inh	Mtb hypoxia inh growth
COc1cccc(NC(=O)c2cc(-c3ccc(OC)cc3OC)nc3ccccc23)c1	3181	-15	.	-11	-2.5	5	5
O=C(O)C1CC=CCC1C(=O)Nc1cc(Cl)ccc1Cl (stereo unspecified)	3722	1	-16	2	4.1	1	7
CCCC[N+](C)(C)CCC(=O)NC(C)(C)CS(=O)(=O)[O-]	2568	1	-5	-6	-1.4	.	.
CC1Cc2ccccc2N1CC(=O)NC(c1ccccc1)c1ccccc1 (stereo unspecified)	2662	-12	-8	-7	8.5	6	4
Nc1[nH]c(N=NC(=O)c2ccccc2)c2ccccc12	6738	2	-11	-7	12	10	7
CN(C)c1ccc(C(=O)NN2C(=O)c3ccccc3C2=O)cc1	4034	19	-10	-12	8.9	-5	2
COC(=O)c1sccc1NC(=O)Cn1nnc(-c2ccc(C)cc2)n1	7765	8	1	-10	5.6	9	2
COc1ccc(S(=O)(=O)N2CCOCC2)cc1C(=O)N(C)CCOc1ccc(Cl)cc1	5969	1	-32	.	1.7	3	1
CC(C)CC(NC(=O)OC(C)(C)C)c1cn([C@@H](CCCCNC(=O)OC(C)(C)C)C(=O)N2CCN(C(=O)OC(C)(C)C)CC2)nn1 (stereo partly specified)	3201	.	-13	-9	.	.	.
COc1ccc(C(=O)OCC(=O)Nc2ccc(F)c(F)c2F)cc1OC	.	4	-5	15	1.1	.	.
O=C(C[n+]1ccccc1)NN=Cc1ccccc1Cl	.	0	.	.	16	1	1
COCCN1CC(CNC(=O)c2cc(COc3ccccc3SC)on2)CC1=O (stereo unspecified)	6170	5	-61	-1	4.1	1	5
COC(=O)C1=C(c2ccccc2)C[C@@H]2CC[C@H]1N2C(=O)NCc1ccco1	3786	.	-10	0	.	.	.
CCc1cc(C(=O)OC)c(N2C(=O)C3C4C=CC(C4)C3C2=O)s1 (stereo unspecified)	23671*	0	5	-12	9.1	9	3
COC(=O)c1ccc(-n2c(C)ccc2-c2ccccc2)cc1	8175	97*	-15	9	-0.5	11	4
Cc1cccn2c(=O)c(C=NCc3ccccc3)c(NCCO)nc12	9067	3	-3	-16	-1.9	7	-6
O=C(O)CCC(=O)N1N=C(c2ccc(Br)cc2)CC1c1cccc(Br)c1 (stereo unspecified)	4040	.	-24	-13	.	.	.
Cc1cc(=O)oc2c(C)cc(C(C)(C)C)cc12	3848	-9	-2	.	-0.2	.	.
O=C(CCNS(=O)(=O)c1ccccc1)NNC(=O)c1csc(N2CCOCC2)n1	6045	5	-63	2	2.3	-3	-13
CC1(NC(=O)CCc2ccccc2)CCN(CCCc2ccccc2)C1=O (stereo unspecified)	4286	11	-27	.	5.2	20	12
N=c1c2c(ncn1Cc1ccco1)Oc1cc(O)ccc1C2c1ccccc1 (stereo unspecified)	5418	0	-2	-22	9.2	14	10
COc1cc(C=NNC(=O)c2ccc(CN(C)S(=O)(=O)c3ccc(C)cc3)cc2)ccc1O	.	-2	.	.	4.7	-13	0
O=C(O)C1CCN(c2c([N+](=O)[O-])cc(C(F)(F)F)cc2[N+](=O)[O-])CC1	4463	-5	-6	-8	10	5	8
Clc1ccc(CNc2cnccn2)cc1Cl	3730	4	-10	-4	2.6	-5	4
COc1cccc(N2C(=O)Nc3ccc(Br)cc3C2(O)C(=O)NCCN(C)C)c1 (stereo unspecified)	3175	-2	-2	5	2.2	-17	-16

Single records, from the list above.
`CC1(NC(=O)CCc2ccccc2)CCN(CCCc2ccccc2)C1=O` (stereo unspecified) across the screens: Autofluor counter: 4286; ugtP null kill: 11; PrP UTR inh: -27; BJeLR lethal: .; RN4220 kill: 5.2; Mtb hypoxia inh: 20; Mtb hypoxia inh growth: 12
`CCCC[N+](C)(C)CCC(=O)NC(C)(C)CS(=O)(=O)[O-]` across the screens: Autofluor counter: 2568; ugtP null kill: 1; PrP UTR inh: -5; BJeLR lethal: -6; RN4220 kill: -1.4; Mtb hypoxia inh: .; Mtb hypoxia inh growth: .

(list continues)
SMILES	Autofluor counter	ugtP null kill	PrP UTR inh	BJeLR lethal	RN4220 kill	Mtb hypoxia inh	Mtb hypoxia inh growth
O=C(COc1ccccc1)Nc1nnc(-c2ccc(F)cc2)o1	4755	2	-16	1	2.9	10	14
COc1ccc(/C(N)=N/OC(=O)C2CCCCC2)cc1	7258	-3	-104	6	4.4	10	4
COc1ccccc1N(CC(=O)N1CCCCC1)S(=O)(=O)c1ccccc1	10098	1	-11	-5	6.0	7	8
CCOc1ccc(C2c3c(oc4ccccc4c3=O)C(=O)N2c2ccc(C)cn2)cc1OC (stereo unspecified)	5958	3	-10	0	-1.5	.	.
CCCn1c(SCC(=O)Nc2ccc3c(c2)OCCO3)n[nH]c1=O	?	8	-31	.	0.8	-2	4
O=C1NC(=O)C(C/C=C/c2ccccc2)C(=O)N1	2683	0	-1	-7	3.4	.	.
Cc1cc(Oc2ccc(N)cn2)cc(C)c1Cl	.	6	-15	-3	4.3	-7	-7
O=C1NCCN/C1=C\C(=O)c1ccc(Br)cc1	.	5	.	-3	3.1	1	4
O=c1c2ccccc2cnn1Cc1n[nH]c(=S)n1C1CC2CCC1C2 (stereo unspecified)	5646	3	-20	3	3.4	12	8
CC1CCC2C(=O)N(c3ccc(NC4CCN(Cc5ccccc5)CC4)c([N+](=O)[O-])c3)C(=O)C2C1 (stereo unspecified)	5170	7	7	5	0.8	3	9
CC(C)CC(CO)N1CCN(Cc2ccc(Br)cc2)CCC1=O (stereo unspecified)	.	-1	.	.	0.7	3	6
CCc1cc2c(=O)c(-c3ccc(F)cc3)c(C(F)(F)F)oc2cc1OCC(=O)O	.	2	.	3	2.1	-7	1
CC(=O)n1cc([C@@H]2C=C(C(=O)Nc3ccccc3)O[C@H](OCCCCO)C2)c2ccccc21	3148	.	-14	-11	.	.	.
CCn1nnnc1SCC(=O)NCc1ccc2c(c1)OCO2	2508	7	-10	0	-2.5	15	1
O=C(Nc1cccs1)Nc1c(F)c(F)c(F)c(F)c1F	2485	-10	-1	-1	5.2	4	3
COc1ccc2nc(SCC(=O)NCc3ccc(OC)c(OC)c3)[nH]c2c1	3574	15	-3	5	3.2	6	5
Cc1cc(C)nc(Nc2ccccc2Br)n1	?	2	-12	5	1.9	2	5
COc1ccc(CNC(=O)COC(=O)c2ccccc2C(=O)c2ccccc2)cc1	3366	7	-16	1	-3.8	3	2
Cc1cc(C=C2SC(N)=NC2=O)c(C)n1-c1ccccc1	.	-6	.	.	4.9	11	14
COc1ccccc1CNC(=O)COC(=O)[C@H](Cc1c[nH]c2ccccc12)NC(=O)c1cccs1	2100	-10	-10	4	8.9	7	5
Cc1cccc(-c2nc(CS(=O)CC(=O)NCc3ccco3)c(C)o2)c1 (stereo unspecified)	5370	3	-20	4	4.4	14	12
COC(=O)c1ccc(NC(=O)COc2cccc(-n3cnnn3)c2)cc1	5467	14	-20	5	5.7	7	7
CC(C)c1nnc(NC(=O)CSc2nnc(NC(=O)c3c(F)cccc3F)s2)s1	4400	12	79*	1	5.5	12	0
COC(=O)Cn1ccc(N(C)C)c(C#N)c1=O	9076	4	-4	-1	3.0	2	2
CCOc1cc(C(=O)N(C)Cc2cc3ccccc3[nH]c2=O)cc(OCC)c1OCC	4612	-3	-24	-4	1.8	.	.

(more compounds)
SMILES	Autofluor counter	ugtP null kill	PrP UTR inh	BJeLR lethal	RN4220 kill	Mtb hypoxia inh	Mtb hypoxia inh growth
O=C(NCc1ccccc1)C(=O)NCC1OCCN1C(=O)c1ccc(Cl)cc1 (stereo unspecified)	4746	-1	-9	2	-2.8	-14	9
O=C(NCC(c1ccco1)N1CCCC1)c1cccc(NS(=O)(=O)c2ccc(Br)cc2)c1 (stereo unspecified)	6937	0	-24	-5	-1.1	-13	-5
CCCc1[nH]nc2c1C(c1cc(OC)cc(OC)c1)C(C#N)=C(N)O2 (stereo unspecified)	8833	34	-25	3	-2.6	3	3
Cc1cc(C)n(-c2nc(SCC(=O)O)c3c4c(sc3n2)CCCC4)n1	.	4	.	-5	18	-5	-10
CC(C)CN1CCC(Oc2cccc(C(=O)NCCc3ccccc3)c2)CC1	5328	2	-36	-1	3.8	15	5
Cc1ccc(CN2CCN(Cc3ccco3)CC2)cc1	4325	3	-5	-10	2.5	2	-2
CN(Cc1cn(C)nc1-c1ccc(Oc2ccccc2)cc1)C1CCOC1 (stereo unspecified)	3167	6	-5	0	13	17	11
CCn1c(CN2CCN(Cc3ccc(C)cc3)C(CCO)C2)nc2ccccc21 (stereo unspecified)	4159	1	11	4	2.3	3	6
Cc1ccc2c(C)nc(N/C(N)=N/S(=O)(=O)c3ccccc3)nc2c1	5700	12	-9	-13	7.0	5	-4
COc1ccc(CN2CCC(=O)N([C@H](CO)CC(C)C)CC2)cc1	3604	.	6	-6	.	.	.
O=C1CCc2cc(S(=O)(=O)N3CCC(C(=O)NC4CCCC4)CC3)ccc2N1	5725	.	5	-1	.	.	.
COc1cc2c(cc1OC)CN(C(=O)c1ccc(OC)c(S(=O)(=O)N3CCCC3)c1)CC2	5310	-3	-28	.	-0.6	-9	2
CC(C)OC(=O)CSc1nnc(-c2cnccn2)n1Cc1ccco1	3271	-2	-12	-8	-19	7	10
O=C(NN=Cc1cn(-c2ccccc2)nc1-c1cccs1)c1ccncc1	.	2	.	.	6.7	10	4
COc1ccc(CCN2CC(C(=O)Nc3cccc(C(C)=O)c3)CC2=O)cc1OC (stereo unspecified)	3560	5	-5	-2	0.4	2	7
O=C(Nc1ccc(C(=O)N2CCCCC2)cc1)c1ccccc1Br	7135	3	1	4	2.9	11	6

Laid out differently: entries from further up
canonical_smiles,Autofluor counter,ugtP null kill,PrP UTR inh,BJeLR lethal,RN4220 kill,Mtb hypoxia inh,Mtb hypoxia inh growth
O=C(NCC(c1ccco1)N1CCCC1)c1cccc(NS(=O)(=O)c2ccc(Br)cc2)c1 (stereo unspecified),6937,0,-24,-5,-1.1,-13,-5
CCCc1[nH]nc2c1C(c1cc(OC)cc(OC)c1)C(C#N)=C(N)O2 (stereo unspecified),8833,34,-25,3,-2.6,3,3
Cc1cc(C)n(-c2nc(SCC(=O)O)c3c4c(sc3n2)CCCC4)n1,.,4,.,-5,18,-5,-10
CC(C)CN1CCC(Oc2cccc(C(=O)NCCc3ccccc3)c2)CC1,5328,2,-36,-1,3.8,15,5
Cc1ccc(CN2CCN(Cc3ccco3)CC2)cc1,4325,3,-5,-10,2.5,2,-2
CN(Cc1cn(C)nc1-c1ccc(Oc2ccccc2)cc1)C1CCOC1 (stereo unspecified),3167,6,-5,0,13,17,11
CCn1c(CN2CCN(Cc3ccc(C)cc3)C(CCO)C2)nc2ccccc21 (stereo unspecified),4159,1,11,4,2.3,3,6
Cc1ccc2c(C)nc(N/C(N)=N/S(=O)(=O)c3ccccc3)nc2c1,5700,12,-9,-13,7.0,5,-4
COc1ccc(CN2CCC(=O)N([C@H](CO)CC(C)C)CC2)cc1,3604,.,6,-6,.,.,.
O=C1CCc2cc(S(=O)(=O)N3CCC(C(=O)NC4CCCC4)CC3)ccc2N1,5725,.,5,-1,.,.,.
COc1cc2c(cc1OC)CN(C(=O)c1ccc(OC)c(S(=O)(=O)N3CCCC3)c1)CC2,5310,-3,-28,.,-0.6,-9,2
CC(C)OC(=O)CSc1nnc(-c2cnccn2)n1Cc1ccco1,3271,-2,-12,-8,-19,7,10
O=C(NN=Cc1cn(-c2ccccc2)nc1-c1cccs1)c1ccncc1,.,2,.,.,6.7,10,4
COc1ccc(CCN2CC(C(=O)Nc3cccc(C(C)=O)c3)CC2=O)cc1OC (stereo unspecified),3560,5,-5,-2,0.4,2,7
O=C(Nc1ccc(C(=O)N2CCCCC2)cc1)c1ccccc1Br,7135,3,1,4,2.9,11,6
